Assay outcomes from PubChem.
D2 potentiator: positive allosteric modulators of human D2 dopamine receptor; potentiation, % (test concentration not listed); 0.23% of 360,000 active; P14416; DiscoveRx D2 beta-arrestin cells, luminescence, 90 min; 100% = 57 uM dopamine signal; active = potentiation of 50% or more; inconclusive = 30% to 50%; inactive = 30% or less;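 also: compound concentration not given in the record; tested on top of an EC20 dose of dopamine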
Target sequence (P14416 whole entry, looked up): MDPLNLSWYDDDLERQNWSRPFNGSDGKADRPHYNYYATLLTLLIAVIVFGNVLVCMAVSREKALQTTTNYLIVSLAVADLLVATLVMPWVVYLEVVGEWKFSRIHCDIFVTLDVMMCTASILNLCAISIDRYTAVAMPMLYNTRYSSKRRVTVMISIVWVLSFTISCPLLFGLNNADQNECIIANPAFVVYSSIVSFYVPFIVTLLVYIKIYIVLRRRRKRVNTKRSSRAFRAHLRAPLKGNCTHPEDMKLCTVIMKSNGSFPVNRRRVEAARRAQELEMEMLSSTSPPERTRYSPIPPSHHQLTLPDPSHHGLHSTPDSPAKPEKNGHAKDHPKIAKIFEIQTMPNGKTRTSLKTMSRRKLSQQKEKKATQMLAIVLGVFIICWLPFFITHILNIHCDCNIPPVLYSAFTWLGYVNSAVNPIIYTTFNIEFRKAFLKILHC
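PathHunter D2 cells, attached overnight at 37 deg C, received compound in DMSO plus dopamine at EC20 (50 nM final) for 90 min at 37 deg C. Beta-arrestin recruitment was read as luminescence after 1 h with detection reagent at ambient temperature.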
Six1-Eya2 blk: Six1/Eya2 interaction inhibition; AlphaScreen GST-Six1/His-Eya2 binding, biochemical; hits give low values; control for the full effect not named in the record; activity change, % (concentration not given with the values); Q15475+O00167; 0.56% of 360,000 active; AID 651725; in the data active = activity change below about -65%; inconclusive = about -30% to -65%; inactive = above about -30%; also: % is scaled to controls: 0 for no effect and ±100 for the full control effect
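AlphaScreen with GST-Six1 and His-Eya2 (5X mix: 250 nM and 500 nM), glutathione donor and nickel acceptor beads; buffer 50 mM Tris pH 8.0, 300 mM NaCl, 1 mM TCEP; 1 h at 37 C in the dark.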
gsp antagonist: antagonizes gsp, the McCune-Albright syndrome mutation. gsp-mutant cells, cAMP HTRF, 30 min; control for the full effect not named in the record. Potency, µM (top dose mostly 76.9 µM), for inactives: at the highest dose activity change, negative = inhibition, actives largely listed as inhibitors. 0.4% of 340,000 active; active = falling curve of any shape with a large fitted effect; inconclusive = falling curve, mostly with a smaller effect; inactive = flat or rising curve; cell line not stated here;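 also: intracellular cAMP measured with PDE inhibitor Ro 20-1724 present during compound exposure; potency is read from the fitted curve at half-maximal effect; % is scaled to controls: 0 for no effect and ±100 for the full control effect; nearly all actives have a fitted effect of over 65% in size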
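Cells, 2000/well, grown 16–24 h in DMEM 10% FBS with 0.5 mg/ml G418, then compounds plus […] (300 uM addition stock), 30 min at 37C. cAMP read by HTRF (cAMP-d2 and anti-cAMP antibody-K in lysis buffer) after 30 min RT.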
D2 ag: activates the human D2 dopamine receptor. P14416. DiscoveRx PathHunter D2 beta-arrestin, luminescence, 90 min; 100% = 57 uM dopamine signal. activation, % (no concentration beside the values). 0.084% of 360,000 active. AID 624465; in the data active = activation above about 40%; inconclusive = about 15% to 40%; inactive = below about 15%; also: compound concentration not given in the record; the text of the record calls up to 30% inactive
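Agonist mode: compounds alone added to overnight-plated D2 PathHunter cells for 90 min at 37 C, with 57 uM final dopamine (EC100) defining full response. Beta-arrestin recruitment detected by chemiluminescent reagent, read after 1 h at ambient temperature.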
CtBP-E1A inh: inhibitors of CtBP/E1A interaction; 0.49% of 340,000 active; activity change, % (no concentration beside the values); AlphaScreen GST-E1A/His-CtBP binding, 1536-well; hits give low values; control for the full effect not named in the record; in the data active means activity change below about -65%; inconclusive means about -30% to -65%; inactive means above about -30%; also: % is scaled to controls: 0 for no effect and ±100 for the full control effect; compound concentration not given in the record
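Steps: dispense buffer (Tris pH 8.0, NaCl 300 mM, TCEP 1 mM, BSA, Tween 20); add 5X protein mix (GST-E1A, His-CtBP, 125 nM each); pin 23 nL compound; 2 h at 37 °C, dark; add 5X beads (50 ug/mL); 1 h; read.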
gsp ag: agonists of gsp mutant (McCune-Albright syndrome) | AID 624287 | Potency, µM (highest dose often 76.9 µM), without a hit: at the top dose activation (cAMP increase), most hits filed as activators | gsp mutant cells, cAMP HTRF, 30 min; control for the full effect not named in the record | 0.13% of 340,000 active; active = well fitted activation curve with a large enough effect; inconclusive = small, poorly fitted or top-dose-only effect, or another doubt; inactive = no such curve, though single readings can be large or run the other way; cell line not stated here;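 also: phosphodiesterase inhibitor Ro 20-1724 added with compounds to block cAMP breakdown; potency is read from the fitted curve at half-maximal effect; nearly all actives have a fitted effect of over 60% in size; about a fifth of the inactives were tested at one dose only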
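Cells stably selected in G418 were plated at 2000/well, grown 16-24 hr, then given compounds in DMSO with the PDE inhibitor […] (300 uM solution added) for 30 min at 37C; cAMP was read by HTRF.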
Active calls of the source: *; ? = inconclusive; nt = no result given; [ ] = another dose, or the depositor's remark.

| no. | D2 potentiator | Six1-Eya2 blk | gsp antagonist | D2 ag | CtBP-E1A inh | gsp ag | Molecule |
| --- | --- | --- | --- | --- | --- | --- | --- |
| 1 | -11 | -12 | -7% | -6.0 | -3 | -24% | CC1CCN(c2c(NCc3ccc(C(=O)NCc4ccco4)cc3)c(=O)c2=O)CC1 |
| 2 | 0 | 1 | 5% | 0.4 | -1 | -10% | COC(=O)c1ccccc1NC(=O)C1CCN(S(C)(=O)=O)CC1 |
| 3 | -1 | 2 | 7% | -2.4 | -19 | ? | C=CCN1C(=O)c2ccc(C(=O)Nc3ccccn3)cc2C1=O |
| 4 | -15 | -2 | -11% | -8.6 | -6 | -13%[15.4 µM] | CC1(C)Cc2c(sc3ncn4c(=S)[nH]nc4c23)CO1 |
| 5 | -21 | -5 | 8% | -3.6 | -23 | -6% | COc1ccc(S(=O)(=O)N/N=C\c2ccccc2F)cc1 |
| 6 | -21 | -1 | 13% | 0.8 | -1 | 21% | CCc1cccc2c(N=O)c(O)[nH]c12 |
| 7 | -17 | -5 | 12% | -1.3 | -17 | -7% | CCN(CC)CCNC(=O)c1cc2c(=O)n(CC)c3ccccc3c2s1 |
| 8 | 4 | 5 | -10% | 7.7 | 6 | -54%[inhibitor] | Clc1ccc(/C=N/Nc2ncnc3ccccc23)cc1Cl |
| 9 | 7 | -4 | -21% | -2.8 | -2 | 3% | COc1ccc(O)c(C(=O)/C=C/c2cc3ccccc3o2)c1 |
| 10 | 10 | -1 | 0% | -2.7 | -1 | 6%[15.4 µM] | CCc1ccccc1NNC(=O)c1snnc1C |
| 11 | -6 | -71* | -5% | -0.6 | -89* | -3%[15.4 µM] | Cc1c(C#N)c(O)[nH]c(=O)c1N=Nc1ccc(Br)cc1C(=O)O |
| 12 | -11 | -2 | -6% | -4.9 | -5 | 23% | CCc1c(C)nc(N2CCN(Cc3ccc4c(c3)OCO4)CC2)[nH]c1=O |
| 13 | -6 | 14 | -5% | -1.7 | 14 | -21% | Clc1ccc(OCc2nc(-c3ccncc3)no2)c(Br)c1 |
| 14 | -8 | -1 | -8% | -4.0 | 0 | -23% | O=C(N[C@@H](Cc1ccccc1)C(=O)NC1CCCCCC1)c1ccco1 |
| 15 | -9 | 10 | 0% | 6.9 | nt | 3% | O=C(N/N=C/c1cccs1)C(=O)Nc1cccc(Cl)c1 |
| 16 | -18 | -22 | -1% | -1.7 | -23 | -4% | O=C(CSc1nnc2c(n1)[nH]c1ccccc12)Nc1ccc2c(c1)OCO2 |
| 17 | 4 | 2 | -12% | -1.7 | 4 | -14% | CC1(c2ccc3c(c2)OCO3)NC(=O)N(CC(=O)NCCC2=CCCCC2)C1=O (stereo not drawn) |
| 18 | 13 | -5 | -6% | 1.9 | 0 | 1% | S=C(Nc1cccc(Cl)c1)Nc1cccc2cnccc12 |
| 19 | -53 | -2 | 4% | 1.6 | nt | -36%[inhibitor] | COc1ccc(CC(=O)NCC2CCCN(Cc3ccc(SC)cc3)C2)cc1 (stereo not drawn) |
| 20 | -13 | -10 | 0% | -1.5 | -21 | 0% | Cc1nonc1CN(C)C(=O)c1cc(COc2ccc(F)cc2Cl)on1 |
| 21 | -18 | 5 | 12% | -6.8 | 9 | -9%[15.4 µM] | O=C(CCNC(=O)Cn1cnc2ccccc2c1=O)NCC1CCCO1 (stereo not drawn) |
| 22 | -1 | 24 | 0% | -0.9 | 2 | 6%[15.4 µM] | COc1ccccc1NC(=O)Nc1ccc(Cl)c(S(=O)(=O)Nc2ccccc2OC)c1 |
| 23 | -20 | -7 | 14% | -1.9 | 1 | 46%[15.4 µM] | O=C(c1ccc(S(=O)(=O)Nc2ccccc2)cc1)N1CCC1 |
| 24 | 0 | 13 | 1% | -4.5 | 5 | 16% | CC1=C(C(=O)NC(C)CCc2ccccc2)C2(CCC(C)CC2)OC1=O (stereo not drawn) |
| 25 | -7 | -1 | 9% | 7.7 | 0 | ? | CCOc1ccc(N(CC(=O)NC2CCCCCC2)S(=O)(=O)c2c(C)[nH]c(=O)[nH]c2=O)cc1 |
| 26 | -11 | 11 | -4% | 0.2 | 0 | -24% | c1ccc(Cn2nnnc2CN2CCOCC2)cc1 |
| 27 | -7 | -6 | ? | -4.3 | nt | 27% | Cc1cccc(-n2c(O)c(C=Nc3ccccc3-c3n[nH]c(=S)[nH]c3=O)c3ccccc3c2=O)n1 |
| 28 | 0 | 0 | 10% | -3.0 | 8 | 13% | O=C(CSc1n[nH]c(=O)n1-c1ccccc1)Nc1ccccc1C(F)(F)F |
| 29 | -9 | 16 | 5% | -1.4 | 31 | -29% | CCc1ccc(C(=O)CCC2CCCCC2=O)cc1 (stereo not drawn) |
| 30 | -11 | 1 | nt | -2.8 | 0 | nt | CCc1nc2ccc(C(=O)NC(C)(C)C)cn2c1N(CC)Cc1cccc(Br)c1 |
| 31 | 27 | 11 | 9% | -0.3 | 1 | -51%[inhibitor] | CN1CC2([N+](=O)[O-])CC=C(OCCO)C([N+](=O)[O-])(C1)C2 (stereo not drawn) |
| 32 | -8 | 13 | -1% | 4.0 | -7 | -14% | COc1cc(CC(=O)Nc2cccc(C(F)(F)F)c2)cc(OC)c1OC |
| 33 | -2 | -5 | 15% | 1.8 | 0 | ? | Cn1c(=O)c2c(nc(CN3CCc4ccccc4C3)n2Cc2cccc(Cl)c2)n(C)c1=O |
| 34 | -16 | 10 | 5% | 0.9 | 11 | -4% | CCOC(=O)C1CCN(C(=O)c2ccccc2NS(=O)(=O)c2ccc(F)cc2)CC1 |
| 35 | -2 | 3 | -8% | -1.7 | 3 | nt | O=C(NCCO)c1ccc2c3n(nc2c1)-c1ccc(Cl)cc1CO3 |
| 36 | -3 | 6 | 6% | -3.1 | -7 | 0% | Cc1nnc(SCC(=O)Nc2ccc3c4c(cccc24)CC3)n1C |
| 37 | 1 | 6 | 7% | -0.2 | 12 | 10% | CCCc1ccc2c(N)c(C#N)sc2n1 |
| 38 | 5 | 0 | nt | 5.6 | 9 | nt | Cc1cc2c(cc1C)N1C(=O)c3cc4ccccc4cc3NC(=O)C1C(=O)N2 (stereo not drawn) |
| 39 | -7 | -5 | nt | -3.2 | 6 | nt | CCOC(=O)C1(C)CCCN(C(=O)c2ccc3snnc3c2)C1 (stereo not drawn) |
| 40 | 2 | 1 | 0% | 0.7 | nt | 14% | COc1cccc(/C=N/NC(=O)c2ccc3nc[nH]c3c2)c1 |
| 41 | -2 | -2 | -12% | -0.7 | 5 | 11% | Cc1ccc2c(c1)N(CC(=O)NCCc1c[nH]c3ccccc13)C(=O)CO2 |
| 42 | -7 | 0 | 12% | -1.8 | 0 | 6% | Cn1c(SCC(=O)C(C)(C)C)nnc1-c1ccncc1 |
| 43 | 6 | -9 | -5% | -1.5 | -10 | -59%[inhibitor] | O=C1Nc2ccc(Br)cc2C1(O)Cc1ccccn1 (stereo not drawn) |
| 44 | -1 | 1 | 12% | -0.5 | 1 | ? | Cc1nn(Cc2c(Cl)cccc2Cl)c(C)c1NC(=O)c1cc(C(C)C)on1 |
| 45 | -12 | -3 | 10% | -7.6 | 7 | -1% | O=C(O)c1cccc(NC(=O)C2C3C=CC(C3)C2C(=O)O)c1 (stereo not drawn) |
| 46 | -18 | 4 | -5% | -3.1 | 3 | 1% | COc1ccc(S(=O)(=O)N2CCCCCC2)cc1C(=O)N(C)Cc1cccc(OC)c1OC |
| 47 | 3 | -13 | ? | -1.2 | -10 | ? | Cc1ccc(C)c(S(=O)(=O)N2CCC(c3nc4c(nnn4Cc4ccc(F)cc4)c(=O)[nH]3)CC2)c1 |
| 48 | -4 | 7 | 2% | -0.9 | -1 | -14% | CC(=O)NC1(C(F)(F)F)C(=O)N(Cc2ccccc2)C2=C1C(=O)CC(C)(C)C2 (stereo not drawn) |
| 49 | 2 | ? | -7% | 0.2 | 0 | -23%[15.4 µM] | C/C(=N\NC(=S)Nc1ccc(C(C)C)cc1)c1ccc2c(c1)OCO2 |
| 50 | -9 | -16 | 11% | -2.8 | -10 | 1% | CSCCC(NS(=O)(=O)c1ccc2c(c1)oc(=O)n2C)C(=O)NCc1ccc(C)cc1 (stereo not drawn) |
| 51 | -3 | 4 | -1% | 0.1 | 6 | -12% | Cc1cc(NC(=O)CSc2nc3c(sc4ccccc43)c(=O)n2CCc2ccccc2)n[nH]1 |
